# From PubChem BioAssay
# AID923 – qHTS Assay for Allosteric/Competitive Inhibitors of Caspase-1: Spectroscopic Profiling in AFC Spectral Region; AID 923, 2007; hit rate 1.1% among 75,000; Potency, µM (titrated, usually from 57.5 µM), without a hit: at the top dose fluorescence increase, usual class: activators; compound fluorescence, AFC spectral region (405/520 nm); almost no hit is shown here; active means well fitted activation curve with a large enough effect; inconclusive means small, poorly fitted or top-dose-only effect;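 further: potency means the concentration at half of the fitted maximal effect; 0% is about no effect; scaled to a free AFC standard on each plate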
#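 Titrations up to 57 uM read every 20 sec for 3 min (405/520 nm) with 50 nM caspase 1 and 5 uM Ac-WEHD-AFC, pH 7.5 HEPES buffer. Fluorescence-vs-time intercept gave baseline, scaled against on-plate AFC standard.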
# A647 autofl – compound fluoresces in the A647 spectral region | AID 592 | Compound fluorescence, A647 channel (570/671 nm), Tris buffer | 59,000 tested, under 10 active | max dye-equivalent concentration, M; active means above 1 µM dye equivalent; inconclusive means 0.1 to 1 µM; inactive means 0.1 µM or less;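 further: values scaled relative to a standard on each plate; highest value over a series up to 38 µM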
#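 Tris 100 mM pH 8.0; cpd + A647 stds pin-transferred; 15 min RT; CCD imager, ex 570/em 671. Output = A647-equivalent conc. per cpd conc.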
# TSHR ag – TSH receptor (human) agonism; hit rate 0.48% among 73,000; P16473; Potency, µM (series often up to 57.1 µM), without a hit: at the top dose activation, most hits filed as activators; HEK293-CNG-TSHR cells (CNG channel as cAMP sensor), membrane potential dye, cAMP; active = well fitted activation curve of enough size with the parental cells flat; inconclusive = any curve in the parental cells; inactive = parental cells flat and receptor cells flat or falling; further: potency means the concentration at half of the fitted maximal effect; % of control where 0% means no effect; weak receptor curves with flat parental cells got no call and are not listed
# Target sequence (P16473 whole entry, looked up): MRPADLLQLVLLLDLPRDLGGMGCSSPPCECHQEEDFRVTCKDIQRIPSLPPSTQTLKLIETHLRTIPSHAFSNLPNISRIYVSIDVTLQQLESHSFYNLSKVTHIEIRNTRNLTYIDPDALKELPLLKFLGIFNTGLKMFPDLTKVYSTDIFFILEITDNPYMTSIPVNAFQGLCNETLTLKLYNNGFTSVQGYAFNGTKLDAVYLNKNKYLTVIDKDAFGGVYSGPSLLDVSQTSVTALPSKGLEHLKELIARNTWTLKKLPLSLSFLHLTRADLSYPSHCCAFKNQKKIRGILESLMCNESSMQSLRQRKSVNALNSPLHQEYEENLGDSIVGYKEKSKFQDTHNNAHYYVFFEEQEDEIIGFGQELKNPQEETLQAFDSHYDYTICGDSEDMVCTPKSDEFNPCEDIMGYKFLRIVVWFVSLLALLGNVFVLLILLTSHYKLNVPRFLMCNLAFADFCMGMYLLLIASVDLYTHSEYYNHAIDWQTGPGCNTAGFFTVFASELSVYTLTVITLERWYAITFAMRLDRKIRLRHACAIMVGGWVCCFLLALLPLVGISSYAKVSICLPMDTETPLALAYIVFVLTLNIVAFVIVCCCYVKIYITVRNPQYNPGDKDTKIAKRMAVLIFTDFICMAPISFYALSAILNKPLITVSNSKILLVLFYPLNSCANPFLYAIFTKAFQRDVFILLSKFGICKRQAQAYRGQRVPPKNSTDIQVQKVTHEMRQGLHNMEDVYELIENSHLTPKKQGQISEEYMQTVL
#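 HEK 293 cells stably expressing TSHR and a cAMP-gated CNG channel; parental CNG-only cells as counterscreen. Cells preloaded 60 min with membrane potential dye plus 100 uM RO 20-1724, then compound 30 min; fluorescence read at 590 nm.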
# Resorufin fluor – compounds fluorescent in resorufin spectral region. max dye-equivalent concentration, M. Compound fluorescence, resorufin region 547/598 nm, buffer; stronger effect = higher value. hit rate 0.04% among 59,000. AID 588; active = above 10 nM dye equivalent; inconclusive = 1 to 10 nM; inactive = 1 nM or less; a few of its hits are not listed in these tables; further: highest value over a series up to 38 µM
#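 Intrinsic fluorescence profiled in the resorufin window (ex 547 nm, em 598 nm) after 15 min at room temperature in pH 8.0 Tris buffer (100 mM); responses normalized against a six-point resorufin standard series as dye-equivalent concentration.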
# A488 autofl – compound fluoresces in the A488 spectral region | compound autofluorescence, A488 spectral region, dye equivalency; stronger effect = higher value | max dye equivalency, M | hit rate 0.1% among 59,000 | AID 591; active = above 10 nM dye equivalent; inconclusive = 1 to 10 nM; inactive = 1 nM or less; about half of its hits are not listed in these tables;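 further: highest value over a series up to 38 µM; compound alone in buffer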
#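 Autofluorescence read at ex 480/em 540 nm after 15 min RT in 100 mM Tris pH 8.0; compound signal normalized to A488 standard series on each plate, reported as dye-equivalent concentration at each test concentration.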
# The depositor's hits bear a star; i = inactive; ? = inconclusive; / = no result given; [ ] = remark or other dose.
SMILES,AID923,A647 autofl,TSHR ag,Resorufin fluor,A488 autofl
Cc1cc(N2C(=O)C3C4C=CC(C4)C3C2=O)ccc1Br (stereo not drawn),-1.2%,5.3e-09,/,i,i
CN1C(=O)CC(N2CCN(C(c3ccccc3)c3ccccc3)CC2)C1=O (stereo not drawn),-1.5%,1e-08,2%,i,i
CCOC(=O)N1CCN(Cc2nc3c(c(=O)n(C)c(=O)n3C)n2Cc2ccccc2C)CC1,-1.5%,4.8e-08,4%,i,i
O=C(CNC(=O)c1cccs1)NC1=NCCS1,1.0%,1e-09,1%,i,i
Nc1cc(=O)[nH]c(=O)n1Cc1ccco1,2.8%,6.2e-09,?,i,i
O=C(CN(CCc1ccccc1)C(=O)CNS(=O)(=O)c1ccccc1)NCC1CCCO1 (stereo not drawn),-0.4%,1e-09,-6%,i,i
O=C(Nc1ccc(S(=O)(=O)NCc2ccco2)cc1)c1ccc2ccccc2n1,0.3%,3e-08,?,i,i
N#Cc1ccc(OCc2nnc(SCC(=O)N3CCCc4ccccc43)n2-c2ccccc2)cc1,-1.8%,7.3e-09,26%,i,i
COc1ccc(C2(C(=O)Nc3cc(C)on3)CCOCC2)cc1,-2.0%,5.4e-09,-11%,i,i
O=C(CSc1nnc(Cc2cccs2)n1-c1ccccc1)NCc1ccc2c(c1)OCO2,0.8%,1e-09,2%,i,i
O=C(CSc1nc2ccccc2o1)Nc1ccc(N2CCOCC2)c(Cl)c1,0.6%,1e-09,?,i,i
Cn1c(=N)n(CC(O)c2ccco2)c2ccccc21 (stereo not drawn),1.0%,3.8e-09,18%,i,i
COC(=O)Cn1c(=NC(=O)CSCC(=O)Nc2cc(C)on2)sc2ccccc21,2.6%,/,15%,/,/
CC(C)(NCc1ccccc1Cl)C(=O)O,-1.0%,1.6e-08,3%[11.4 µM],i,i
COCCCN1C(=O)C(O)=C(C(C)=O)C1c1ccccn1 (stereo not drawn),2.9%,1.9e-08,-6%,i,i
O=C(c1cccc(F)c1)N1CCC2(CCCN(c3ccccn3)C2)CC1,-0.3%,1.7e-09,?,i,i
Cc1ccc(C)c(SCC(=O)OCC(=O)c2ccco2)c1,-0.3%,1.2e-08,5%,i,i
Nc1ncnc2nc(-c3ccc(C[P+](c4ccccc4)(c4ccccc4)c4ccccc4)cc3)[nH]c12,-2.3%[11.5 µM],1e-09,-2%[11.4 µM],i,i
CCn1c(SCC(=O)NCc2ccc3c(c2)OCO3)nnc1-c1c[nH]c2ccccc12,-1.2%,4.5e-09,28%,i,i
COc1ccc(CNc2oc(C)nc2C#N)cc1,-1.2%,/,?,/,/
Cc1cc(C(=O)Cn2nnc3ccccc3c2=O)c(C)n1Cc1cccs1,-0.5%,2.5e-08,?,i,i
Cc1cccc(-n2ccnc2SCC(=O)Nc2nccs2)c1C,0.5%,9.1e-09,5%[11.4 µM],i,i
O=C(NCC1COc2ccccc2O1)c1ccccc1 (stereo not drawn),1.2%,8.2e-09,7%,i,i
CCc1cc(=O)oc2cc(OCC(=O)N3CCCc4ccccc43)ccc12,-0.6%,/,25µM*,/,/
COc1ccc2[nH]cc(CCNc3ncncc3-c3ccc(N(C)C)cc3)c2c1,1.1%,1e-09,7%,i,i

# Reformatted with values under each structure: part of the list above.
# Results follow in this order: AID923, A647 autofl, TSHR ag, Resorufin fluor, A488 autofl
O=C(Nc1ccc(S(=O)(=O)NCc2ccco2)cc1)c1ccc2ccccc2n1
    0.3%, 3e-08, ?, i, i
Cc1cccc(-n2ccnc2SCC(=O)Nc2nccs2)c1C
    0.5%, 9.1e-09, 5%[11.4 µM], i, i
Cc1cc(N2C(=O)C3C4C=CC(C4)C3C2=O)ccc1Br (stereo not drawn)
    -1.2%, 5.3e-09, /, i, i
O=C(c1cccc(F)c1)N1CCC2(CCCN(c3ccccn3)C2)CC1
    -0.3%, 1.7e-09, ?, i, i
COc1ccc2[nH]cc(CCNc3ncncc3-c3ccc(N(C)C)cc3)c2c1
    1.1%, 1e-09, 7%, i, i

# (cont.)
SMILES,AID923,A647 autofl,TSHR ag,Resorufin fluor,A488 autofl
C[C@H](NC[C@H](O)CP(=O)(O)Cc1ccccc1)c1ccc(Cl)c(Cl)c1,-2.1%,/,1%,/,/
Cc1cc(C)nc(N2CCN(c3ncnc4c3oc3ccccc34)CC2)n1,1.4%,2.7e-08,16%,i,i
Cn1c(C(=O)N2CCN(c3ccc(Cl)cc3)CC2)cc2c(=O)n(C)c3ccccc3c21,2.3%,/,0%,/,/
O=C(Cn1cc2c(n1)CCCC2)N1CCOCC1,-2.6%,/,1%,/,/
O=S(=O)(Nc1ncnc2c1oc1ccccc12)c1ccc(Cl)s1,1.1%,1.3e-08,6%,i,i
O=C1c2ccccc2C(=O)N1CCCCSc1nnc2ccccn12,1.1%,1.1e-09,-3%,i,i
Cc1cc(N2C(=O)C(=O)/C(=C(/O)c3ccc(F)cc3)C2c2cccc(Br)c2)no1 (stereo not drawn),/,1e-09,/,i,i
OCCN1CN=C(Nc2nc3ccccc3s2)NC1,1.1%,2.7e-08,3%,i,i
CC1CCCN(S(=O)(=O)c2cccc(-c3cn4cccnc4n3)c2)C1 (stereo not drawn),0.6%,4.4e-08,7%,i,i
CON(C)c1nc(OCCNC(=O)COc2ccc(Cl)cc2C)nc(N(C)C)n1,2.1%,/,26%,/,/
Cc1ccc(-c2noc(C3CCCN(C(=O)c4c(F)cccc4F)C3)n2)cc1 (stereo not drawn),0.5%,4.5e-08,?,i,i
Cc1sc2ncnc(OCC(=O)N3CCN(S(=O)(=O)c4ccccc4)CC3)c2c1C,0.1%,2.1e-08,-8%,i,i
CC(c1nnc(Sc2nnnn2-c2ccccc2)n1-c1ccc(F)cc1)N(C)C (stereo not drawn),-1.5%,3.8e-08,-2%,i,i
CC(O)c1nc2ccccc2n1C/C=C/c1ccccc1 (stereo not drawn),-2.5%,1e-09,?,i,i
CC(=O)C1=C(O)C(=O)N(CCc2c[nH]c3ccccc23)C1c1cccc(O)c1 (stereo not drawn),-0.1%,6.3e-09,?,i,i
O=C(O)c1cccc(Nc2ncnc3ccccc23)c1,1.1%,/,2%,/,/
CCOC(=O)N1CCN(S(=O)(=O)c2ccc(OC)c(Cl)c2Cl)CC1,-4.5%,2.5e-09,8%,i,i
O=C(Nc1cccc2ccccc12)N1CCN(c2ccccc2)CC1,0.1%,1e-09,17%,i,i
O=C(Cn1cc(C(F)(F)F)ccc1=O)N1CCN(S(=O)(=O)c2ccccc2)CC1,-1.4%,3.1e-08,0%,i,i
COc1ccc(C(=O)NC2CCCCC2)cc1S(=O)(=O)N1CCCC1,-1.1%,5.8e-09,10%,i,i
C=CCNc1nc(-c2ccccc2)nc(-n2ccnc2)n1,-0.1%,1.7e-08,/,i,i
COc1ccc(-c2nc(C(N)=O)c3[nH]c(=O)n(-c4cccc(C)c4)c3n2)c(OC)c1,0.9%,/,19%,/,/
CC(=O)NC(CCS(C)(=O)=O)C(=O)Nc1cccc(Cl)c1Cl (stereo not drawn),-1.0%,/,4%,/,/
Fc1ccccc1N1CCN(C2CCN(Cc3c[nH]c4ccccc34)CC2)CC1,-2.9%,/,8%[11.4 µM],/,/
O=c1oc(-c2cccs2)nc2sc3c(c12)CCCCC3,0.4%,/,-3%,/,/
# (listing goes on)
SMILES,AID923,A647 autofl,TSHR ag,Resorufin fluor,A488 autofl
O=C(C1=C(O)C(=O)N(CCN2CCOCC2)C1c1cccs1)c1cc2ccccc2o1 (stereo not drawn),1.2%,2e-08,-3%,i,i
COCCNC(=O)C(c1ccncc1)N(C(=O)Cn1nnc2ccccc21)c1ccc(OC)cc1 (stereo not drawn),-0.1%,1.7e-08,1%,i,i
CCN(CC)S(=O)(=O)c1ccc(NS(=O)(=O)c2cccc(C)c2)cc1,-0.3%,3.3e-09,6%,i,i
CCCc1nc2ccccc2n2cc3c(=O)n(C)c(=O)n(C)c3c12,1.0%,5.1e-09,4%,i,i
CCCC1(C(=O)OC)C=C2C(=C(C)C(=O)C2C)CN1 (stereo not drawn),2.2%,/,1%,/,/
COC(=O)C1=C(C)OC(N)=C(C#N)C1c1cc(OC)c(OCC(N)=O)cc1Cl (stereo not drawn),6.4%,4.6e-08,9%,i,i
COc1ccc(NC(=O)CSc2nnc(-c3cccs3)n2C)cc1OC,0.7%,2.6e-08,-5%,i,i
Cc1cc(NC(=O)C2CCCCC2)nc2c1c(=O)oc1ccccc12,1.1%,1e-09,?,i,i
Cc1ccc(C)c(N(CC(=O)NCc2ccc3c(c2)OCO3)C(=O)CCC(=O)Nc2ccccn2)c1,-3.8%,1e-09,25%,i,i
C[C@@H]1CC[C@H]2C(=O)N3[C@@H](CC[C@@H](C)[C@@H]3c3ccc(Br)cc3)C(=O)N2[C@@H]1c1ccc(Br)cc1,-2.9%[11.5 µM],/,-2%[11.4 µM],/,/
O=C(CN1CCN(CC(=O)Nc2ccccn2)CC1)Nc1ccccn1,0.1%,/,-6%[11.4 µM],/,/
Nc1nc(-c2ccco2)c(-c2ccco2)s1,10%,4.3e-08,-5%,i,i
COC(=O)c1ccc2nc(C(F)(F)F)[nH]c2c1,0.1%,1e-09,9%[11.4 µM],i,i
CNC(=O)c1ncnnc1N(C)C(=O)NCc1ccccc1,/,3.9e-08,/,i,i
O/N=C(\COc1ccccc1O)c1ccccc1,-0.7%,5.9e-09,-2%,i,i
O=C(Nc1ccccc1C(=O)NCc1ccc(Cl)cc1)c1ccco1,-1.6%,2e-08,?,i,i
Cn1c(=O)[nH]c(=O)c2c1nc(Br)n2CCCCSc1nc2ccccc2o1,2.8%,1e-09,?,i,i
COc1ccc(-n2c(Cc3cc(=O)[nH]c(=O)[nH]3)nnc2SCC(=O)NC2CCCC2)cc1,1.4%,/,1%,/,/
CCCn1c(-c2ccc(F)cc2)nc2c(NCCN3CCCCC3)nc(C)nc21,0.2%,/,?,/,/
Cc1ccc(Cn2c(=O)c3c(nc4n3CCN4Cc3ccco3)n(C)c2=O)cc1,-0.7%,1.7e-08,0%,i,i
O=C(OCC(=O)N1CCCCC1)c1cc2ccccc2cc1O,3.2%,3.5e-08,1%,i,i
CCCCCCOC(=O)C1=C(C)NC(=O)NC1c1ccc(O)cc1 (stereo not drawn),0.6%,1e-09,-4%,i,i
COC(=O)[C@@]1(Cc2ccccc2)[C@H]2c3cc(C(=O)N(C)C)n(Cc4ccc(S(C)(=O)=O)cc4)c3C[C@H]2CN1C(=O)c1ccccc1,-5.8%,/,?,/,/
O=C(CSc1nc(-c2ccco2)cc(C(F)(F)F)n1)NC1CCCC1,-1.0%,/,?,/,/
O=C(NC1CCCC1)C1CCCN(S(=O)(=O)c2cccc3cccnc23)C1 (stereo not drawn),-3.1%,/,-5%,/,/
# The listing continues.
SMILES,AID923,A647 autofl,TSHR ag,Resorufin fluor,A488 autofl
O=C(NCc1ccco1)c1cc2n(n1)C(C(F)(F)F)CC(c1ccc(F)cc1)N2 (stereo not drawn),-0.2%,2.2e-08,-7%,i,i
Cc1cc(C(=O)OCn2nnc3ccccc3c2=O)c(C)o1,-1.8%,5.4e-08,6%,i,i
Cn1c(=O)n(C)c2cc(S(=O)(=O)NCCc3ccccc3)ccc21,-0.3%,5.3e-09,?,i,i
CCSCC1COC(c2cccn2Cc2ccc(C)cc2)=N1 (stereo not drawn),1.2%,8.1e-09,21%,i,i
CCN(CC)c1ccc(NC(=O)CCCCCN2C(=O)c3ccccc3C2=O)cc1,-1.0%,1e-09,-19%,i,i
Cn1c(SCC(=O)N2CCCc3ccccc32)nnc1-c1c[nH]c2ccccc12,-1.7%,2.5e-09,0%,i,i
O=C(CSc1nc2ncc(Br)cc2[nH]1)Nc1ccc2c(c1)OCO2,-2.0%,1e-09,7%,i,i
CCOC(=O)CC(=O)Nc1nc2ccccc2s1,1.1%,/,4%,/,/
CC(C)C(NC(=O)c1ccco1)C(=O)NCC(c1ccco1)N1CCCCC1 (stereo not drawn),0.4%,8e-09,16%,i,i

# An excerpt (hit frequency here may not be typical).
